HNF4A DNA FP = change in binding of human HNF4A to DNA, primary screen, biochemical, fluorescence polarization, FITC-DNA; 1 h; activity change, % at 10 µM; 0.3% of 360,000 active; AID 1224865, 2016; in the data active means activity change above about 30%, passing the limit was not always enough;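 further: controls were the assay level and a saturating level of protein; the project sought stronger binding though the title names inhibitors; some compounds called inactive have numbers as strong as hits; positive values seem to mean higher polarization but the record does not say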
Target sequence (P41235 whole entry, looked up): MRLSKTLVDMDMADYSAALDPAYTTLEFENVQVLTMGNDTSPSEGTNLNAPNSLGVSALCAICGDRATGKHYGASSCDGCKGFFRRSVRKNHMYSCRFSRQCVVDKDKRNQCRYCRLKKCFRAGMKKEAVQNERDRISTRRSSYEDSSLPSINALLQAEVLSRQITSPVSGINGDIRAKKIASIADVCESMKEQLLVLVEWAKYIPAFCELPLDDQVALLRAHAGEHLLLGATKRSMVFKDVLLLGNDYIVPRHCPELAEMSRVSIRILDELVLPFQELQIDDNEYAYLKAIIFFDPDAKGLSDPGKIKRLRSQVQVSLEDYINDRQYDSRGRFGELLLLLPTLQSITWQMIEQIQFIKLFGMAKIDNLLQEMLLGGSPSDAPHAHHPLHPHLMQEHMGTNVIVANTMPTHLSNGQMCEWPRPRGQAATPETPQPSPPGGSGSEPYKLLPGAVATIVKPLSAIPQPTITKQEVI
RanGTP-Impb inh = inhibitors of RanGTP-importin-beta interaction, primary screen, biochemical, FRET, CFP-Ran, YFP-importin-beta, homogeneous | cell-free CFP-Ran/YFP-importin-beta FRET ratio | 1.1% of 300,000 active | Ran GTPase (GTP-bound) - importin-beta complex | inhibition, % (test concentration not listed);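 active means most replicates above 15%; inconclusive means exactly half above 15%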;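 further: 0% = DMSO wells and 100% = Ran loaded with GDP instead of GTP; wells of about 40 µL received 100 nL stock; the first replicate is given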
Calb FLC = C. albicans growth inhibition with fluconazole, primary screen, CaCi-2 strain, Alamar Blue fluorescence | C. albicans CaCi-2 (fluconazole-resistant clinical isolate) + fluconazole, 48 h | growth inhibition, % (test concentration not listed) | 0.57% of 300,000 active | AID 1979, 2009;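 active means most replicates above 75%; inconclusive means exactly half above 75%; inactive means most below 75%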;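 further: all wells also contain fluconazole at 8 µg/ml as a sub-toxic cotreatment; 0% = median of DMSO wells and 100% = median of geldanamycin control wells; wells of about 8 µL received 7.5 nL stock; the first replicate is given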
B2AR ag = beta2AR agonists driving receptor internalization, primary screen, cell-based, FAP fluorogen, flow cytometry. Am2.2-beta2AR cells; reference of the scale not given here. response, % (concentration not given with the values). 0.43% of 340,000 active. AID 504454, 2011;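 active means response above a set limit, near 3 SD of response in nonfluorescent compounds, cut at about 42% in these data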;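 further: stock transfer was 100 nL into about 11 µL; a reference agonist was the positive control; negative values mostly stem from fluorescent compounds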
Target sequence (P07550 whole entry, looked up): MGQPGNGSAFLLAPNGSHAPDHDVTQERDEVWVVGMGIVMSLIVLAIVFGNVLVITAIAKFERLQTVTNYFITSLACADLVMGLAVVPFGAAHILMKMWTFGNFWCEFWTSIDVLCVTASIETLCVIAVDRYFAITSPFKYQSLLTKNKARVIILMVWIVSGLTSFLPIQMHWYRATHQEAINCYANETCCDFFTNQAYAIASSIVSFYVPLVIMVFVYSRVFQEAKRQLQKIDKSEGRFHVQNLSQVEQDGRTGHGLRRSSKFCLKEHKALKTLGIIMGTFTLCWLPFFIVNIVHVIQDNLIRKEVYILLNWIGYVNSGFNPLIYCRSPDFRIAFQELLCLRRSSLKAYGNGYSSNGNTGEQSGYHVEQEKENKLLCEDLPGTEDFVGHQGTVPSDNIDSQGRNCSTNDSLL
LANA-H2B inh = blockers of LANA interaction with H2A/H2B – biochemical, FP readout, HTS, primary screen. cell-free LANA-H2A/H2B peptide, fluorescence polarization. inhibition, % (no concentration beside the values). 0.6% of 320,000 active; in the data active means inhibition mostly above about 10%, no sharp cut-off; inactive means mostly below about 6.7%;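 further: stock transfer was 7.5 nL into about 10 µL; 0% = median of vehicle wells and 100% = median of positive control wells; one replicate is shown; the record names a cut of 25% in any replicate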
Vif TR-FRET = inhibitors of Vif binding to APOBEC3G peptide, primary screen, biochemical, TR-FRET, GST-Vif 1-94, biotin-A3G peptide, dose response retest (AID 1117319) | Virion infectivity factor (Human immunodeficiency virus type 1 group M subtype B (isolate … | TR-FRET GST-Vif / biotin-A3G peptide binding; higher % means a stronger effect; test concentration not given here; strong numbers were not always called active | inhibition, %; hits with a dose series show IC50 in µM | 0.57% of 260,000 active;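 active means above the screen mean plus three standard deviations and confirmed in dose response; inconclusive means results disagree or hit not tested in dose response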;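 further: Vif residues 1-94 fused to GST binding biotinylated APOBEC3G peptide 110-148; 0% = full assay without inhibitor and 100% = GST in place of GST-Vif; retest series ran down from 100 µM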
ALR H2O2 inh = inhibitors of human ALR sulfhydryl oxidase, primary screen, biochemical, H2O2 detection, HRP-luminol luminescence, single point | FAD-linked sulfhydryl oxidase ALR (Homo sapiens), P55789 | purified ALR, DTT oxidation | inhibition, % (test concentration not listed) | 3.8% of 290,000 active;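 active means mean and each replicate at 75% or more; inconclusive means only one of the two met; inactive means neither met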;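 further: stock transfer was 7.5 nL into about 7.5 µL; 0% = neutral wells and 100% = wells with inactivated enzyme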
* = called active by the depositor; u = inconclusive; x = not tested or not shown.

canonical_smiles,B2AR ag,ALR H2O2 inh,Calb FLC,RanGTP-Impb inh,Vif TR-FRET,HNF4A DNA FP,LANA-H2B inh
CCCCN(CC)CCNC(=O)c1cc2c(=O)[nH]c3ccccc3c2s1,-12,-2,-7,-2.1,-9%,7.5,4.8
CCC(C)(C)C1CCc2[nH]nc(C(=O)NC3CCCC3)c2C1 (centres undefined),-1,2,x,x,x,7.2,7.4
c1ccc2c(-c3ccncc3)c[nH]c2c1,0,22,14,4.0,-4%,-4.9,-1.6
CS(=O)(=O)N1CCCC(C(=O)NCCCN2CCC(Cc3ccccc3)CC2)C1 (centres undefined),-9,-10,1,u,84µM*,0.1,1.6
Cc1ccc(-c2nnc3c(C(F)(F)F)nc4ccccc4n23)cc1,12,0,37,5.6,-3%,4.2,-2.3
Cc1ccc(C(=O)NCc2ccco2)cc1S(=O)(=O)N1CCOCC1,-5,-11,-6,25*,-8%,-3.0,4.5
O=C(NCCN1CCCC1=O)C1CCC(=O)N(CCc2cccc(F)c2)C1 (centres undefined),11,-21,-3,3.8,x,1.6,-0.8
O=C(c1ccc(Cl)cc1)c1cnc(-c2ccc(Cl)cc2)s1,9,-5,1,u,-5%,3.2,4.7
O=C(Cn1cnc2ccccc21)NCCCN1CCOCC1,9,-8,-1,7.4,-6%,-1.2,4.9
CCO/C(C)=C1\C(=O)N(CC)c2ccccc21,2,x,-6,-1.7,3%,-1.8,3.7
COC(=O)C1=C(C(=O)OC)[C@@H]2N(C)c3ccccc3[C@@]23C[C@@H](C(=O)OC)N(C(=O)CC(C)C)C3=N1,3,-27,-10,-4.2,0%,-0.6,1.8
COC(=O)C1=C(C)N(CCc2c[nH]c3ccc(OC)cc23)C(=O)C1,14,x,9,2.1,x,-1.8,x
CCOC(=O)C1CCN(C(=O)c2ccc(OCC(=O)Nc3cccc(C(F)(F)F)c3)c(OC)c2)CC1,-5,0,-3,3.6,-1%,-5.5,2.8
CCCC(=O)Nc1ccc(Cl)c(NC(=O)c2cccnc2Cl)c1,-4,-37,14,u,2%,-3.1,-1.4
CCN(CC(=O)N1CCN(Cc2ccccc2)CC1)S(=O)(=O)c1ccc(F)cc1,-4,1,7,1.3,-2%,-1.3,8.2
OC[C@@H]1[C@@H](c2ccc(F)cc2)C(c2cccc(Cl)c2)=NN1c1ccccc1,-4,x,x,x,-5%,9.3,x
O=C(C1COc2ccccc2O1)N1CCc2ccccc2C1 (centres undefined),-7,-1,-15,4.7,x,-0.3,-6.6
O=C(O)C1=C[C@H](C2CC2)C[C@H](OCc2ccc(CO)cc2)O1,-6,-3,-2,0.1,x,0.9,-4.8
COc1cccc(C(=O)NNC(=O)c2cccnc2)c1,3,x,-5,4.7,x,2.8,-5.8
Cn1c(=O)n(C)c2cc(N3CCOCC3)c(NC(=O)c3cccc(Cl)c3)cc21,-16,-3,-1,0.7,x,0.1,-2.7
Cc1ccccc1Nc1nc(-c2ccccc2)c(C(=O)Nc2cccnc2)s1,-6,-3,26,-4.0,-16%,-4.5,1.9
C[C@H](NC(=O)c1nc[nH]c1C(=O)N[C@@H](CCCCN)C(=O)OC(C)(C)C)C(=O)OC(C)(C)C,-1,x,-4,-0.5,x,1.8,-1.6
COc1ccccc1CCNC(=O)c1ccc(Br)s1,-6,-3,6,-2.6,u,9.3,1.1
CSc1sc(C(=O)O)c(C)c1C(C)=O,2,-1,-10,1.1,3%,-0.9,1.4
CC1CCN(CC(O)COc2ccc(-c3ccccc3)cc2)CC1 (centres undefined),16,20,-7,-2.8,x,2.5,2.7
COc1cc2[nH]c(=S)n(Cc3ccco3)c(=O)c2cc1OC,0,6,9,1.7,-3%,0.6,-12
COc1ccc(-c2cc(C(=O)Nc3cc(C)on3)c3ccccc3n2)c(OC)c1,-15,1,0,5.4,-3%,0.9,2.4
Cc1cc(C)c(NC(=O)CNC(=O)COC(=O)Cc2cccs2)c(C)c1,3,-3,1,1.7,0%,1.1,0.6
CCn1c(SCC(=O)Nc2cc(C)on2)nnc1-c1ccco1,6,1,3,2.3,20%,2.9,0.8
CCOc1cc(C(=O)NCC(=O)N/N=C/c2sccc2C)cc(OCC)c1OCC,-7,-2,0,-0.9,-2%,-4.3,5.4
CCOC(=O)C1CCCN(C(=O)c2cc(S(=O)(=O)N3CCCCC3)ccc2Cl)C1 (centres undefined),0,5,-4,x,2%,-0.1,-3.1
O=C(c1ccco1)N1CCN(Cc2cccc(F)c2)CC1,2,-14,7,1.5,32%,0.7,0.0
Cc1ccc(-n2c(SCC(=O)Nc3nccs3)nc3c(c2=O)SCC3)cc1,-14,-27,-26,0.6,-14%,8.8,1.0
C=CCN(CC=C)CCOc1cccc2ccccc12,-25,-19,-30,0.0,3%,0.0,0.0
Cc1nc2ccc(NC(=O)N3CCN(c4ccccn4)CC3)cc2s1,2,12,-16,0.7,23%,6.6,-2.5
CC(C)(C)Cc1nc(-c2ccccn2)no1,-9,-7,5,3.9,0%,2.1,1.3
COc1ccc(N2C(=O)CSC2c2ccc3c(c2)OCO3)c(OC)c1 (centres undefined),2,35,23,-2.4,-7%,-3.3,2.1
COc1ccccc1CN1CC(C(=O)NCc2ccc(N3CCCC3=O)cc2)CCC1=O (centres undefined),-8,2,2,1.0,0%,1.2,x
FC(F)(F)c1nc(N2CCCC2)ncc1-c1nnnn1-c1ccc(Cl)cc1,-8,-5,4,-2.5,-4%,-1.2,0.8
COc1cc(S(=O)(=O)N2CCCCCC2)c(OC)cc1Br,2,-18,-17,-0.8,10%,-5.0,2.7
Cn1c2ccsc2c2ncn(Cc3ccccc3F)c(=O)c21,15,-2,x,x,7%,-1.3,-350
CC(=O)Nc1sc(C)c(C)c1C(=O)OCC(=O)Nc1cc(S(C)(=O)=O)ccc1Cl,0,-3,-2,5.2,3%,2.7,2.1
O=C(c1cc(=O)[nH]c2ccccc12)N1CC=C(c2ccccc2)CC1,-1,x,-5,-7.6,7%,-9.1,x
CC1(C)Cc2ccccc2-c2nnc(-c3ccco3)n21,3,-5,-18,-2.5,-3%,1.8,0.5
Cc1ccc(C(=O)NCC(C)NC(=O)c2ccc(C)c(C)c2)cc1C (centres undefined),4,-1,2,0.8,x,3.0,-1.1
C/C(=N\NC(=O)c1ccco1)c1ccc(C(=O)O)s1,-4,-5,1,-0.5,-4%,5.5,2.8
Cc1cc(C)nc(N2CCCC(C(=O)Nc3nnc(C(C)(C)C)s3)C2)n1 (centres undefined),-12,0,-1,u,-64%,-2.3,-1.9
CC(NC(=O)NCCCC(=O)O)(C(F)(F)F)C(F)(F)F,-6,0,-5,-2.9,1%,-3.5,-1.0

With a hit mark in RanGTP-Impb inh, of those listed so far:
canonical_smiles	B2AR ag	ALR H2O2 inh	RanGTP-Impb inh	Vif TR-FRET	HNF4A DNA FP	LANA-H2B inh
Cc1ccc(C(=O)NCc2ccco2)cc1S(=O)(=O)N1CCOCC1	-5	-11	25*	-8%	-3.0	4.5

(more compounds)
canonical_smiles,B2AR ag,ALR H2O2 inh,Calb FLC,RanGTP-Impb inh,Vif TR-FRET,HNF4A DNA FP,LANA-H2B inh
COc1cccc(CNC(=O)CCC2CCCN(C(=O)c3ccoc3C)C2)c1 (centres undefined),-4,-12,1,2.0,-2%,2.3,-2.4
CCc1nnc(NC(=O)c2sc3nc4c(cc3c2N)CCCCC4)s1,-12,11,14,u,x,1.2,0.0
CN(C)CCCNCCCCNC(=O)/C=N/O,3,-7,25,-1.1,-6%,-2.2,4.8
CCOc1ccc(S(=O)(=O)N(C(=O)c2ccco2)c2cc3sc(=O)oc3c3ccccc23)cc1,11,-43,17,-5.5,u,0.4,-1.9
C=CCNC(=S)Nc1ccc(Br)cc1F,-2,-15,-17,-1.4,-11%,1.5,13*
COc1ccc(C(=O)NCc2nnc(SCC(=O)N3CCC(C)CC3)o2)cc1OC,4,0,0,u,5%,-0.2,-2.0
O=C(NCCc1ccc(F)cc1)c1ccc(S(=O)(=O)N2CCCC2)cc1,12,-3,x,x,14%,4.8,6.9
O=C(O)CCCNc1ccc([N+](=O)[O-])c(NCCCC(=O)O)n1,-3,-9,9,-1.9,5%,-1.7,3.2
O=C(NCCOc1ccccc1)c1ncn[nH]1,-5,-1,-26,-0.6,-1%,0.7,-0.5
Cc1ccc(-c2nsc3c(N4CCC(C(N)=O)CC4)ncnc23)cc1,2,-7,13,0.2,-8%,3.7,1.7
COc1ccc(NC(=O)C2=CC(c3ccco3)=NS(=O)(=O)N2C)cc1OC,0,-49,0,-2.5,1%,2.5,0.9
Cc1cc(C)c2c(N)c(C(=O)Nc3ccc([N+](=O)[O-])cc3)sc2n1,15,0,0,-4.2,0%,-1.5,1.3
Cc1c(N=Cc2c(O)n(C)c(=O)c3ccccc23)c(=O)n(-c2ccccc2)n1C,7,2,-6,0.4,u,-2.5,2.9
CCn1c(C)c(C)c2cc(C(=O)NCCCN3CCCCC3)ccc21,24,0,-2,-2.3,x,11,4.5
Cc1ccc(CNC(=O)C(Cc2ccccc2)n2cccc2)cc1 (centres undefined),0,-2,-4,0.6,-3%,1.2,6.0
CCN1C(=O)/C(=C\c2ccncc2)SC1=S,6,2,6,-2.5,-4%,0.1,-6.4
N#CC12CCCCC1CC1CCCCC1(C#N)N2CCO (centres undefined),5,-1,-4,-1.5,-1%,0.8,5.9
Cc1cc(C)c(NC(=O)c2cccc(NC(=O)c3ccco3)c2)c(C)c1,14,-10,1,3.3,0%,0.4,1.8
CCN(C(=O)CSc1nc2ccccc2n1C)C1CCS(=O)(=O)C1 (centres undefined),-15,-5,x,x,-4%,-1.0,1.4
O=C(CC1CCCCC1)NCc1ccc(Cl)cc1,-6,-9,-13,-0.2,-2%,0.2,1.2
Cc1ccccc1N(C(=O)Cc1cccs1)C(C(=O)NC1CCCCC1)c1cn(C)nc1C (centres undefined),1,1,-2,0.7,x,0.9,-1.8
CCOC(=O)c1c2ccccc2[n+]([O-])n1[C@@H](C)C(N)=O,6,22,12,-0.9,x,-2.6,3.9
COc1ccc(/C=C2\SC(=S)N(CC(=O)NNC(=O)c3ccncc3)C2=O)cc1,12,x,-18,-7.0,-4%,-2.8,-0.5
Cc1cccc2nc(CSc3nc4ccccc4[nH]3)cn12,-6,1,3,3.8,x,-2.3,-1.8
CCOc1ccc(S(=O)(=O)N2CCN(C(=O)c3ccco3)CC2)cc1,-3,-1,-3,-2.8,-3%,-0.5,1.6
CCOc1ccc2nc(/N=C/c3nc(-c4ccccc4)oc3O)sc2c1,-1,-2,4,3.7,5%,26,1.6
Cc1cc(C)c(NC(=O)CSc2nc3ccccc3c(=O)n2CCCN2CCOCC2)c(C)c1,0,-3,x,x,-7%,0.2,x
CC(=O)Nc1ccc(NC(=O)CCn2c(=S)oc3ccccc32)cc1,-9,39,0,-2.5,0%,0.3,-0.7

An excerpt from above in order of the B2AR ag value, high to low.
molecule	B2AR ag
Cc1cc(C)c(NC(=O)CSc2nc3ccccc3c(=O)n2CCCN2CCOCC2)c(C)c1	0
CCOc1ccc(S(=O)(=O)N2CCN(C(=O)c3ccco3)CC2)cc1	-3
CC(=O)Nc1ccc(NC(=O)CCn2c(=S)oc3ccccc32)cc1	-9
